Bioassay records deposited in PubChem BioAssay by National Center for Advancing Translational Sciences (NCATS).
VDR inh = Inhibitors of the vitamin D receptor (VDR): qHTS | Vitamin D3 receptor (Homo sapiens), P11473 | VDR-SRC2-3 peptide fluorescence polarization, 2 h | 0.93% of 400,000 active | Potency, µM, inactives show max response, negative = inhibition, most hits filed as inhibitors; active = well fitted inhibition curve with a large enough effect; inconclusive = small, poorly fitted or top-dose-only effect, or another doubt; inactive = no such curve, though single readings can be large or run the other way; note: series mostly up to about 120 µM
Target sequence (P11473 whole entry, looked up): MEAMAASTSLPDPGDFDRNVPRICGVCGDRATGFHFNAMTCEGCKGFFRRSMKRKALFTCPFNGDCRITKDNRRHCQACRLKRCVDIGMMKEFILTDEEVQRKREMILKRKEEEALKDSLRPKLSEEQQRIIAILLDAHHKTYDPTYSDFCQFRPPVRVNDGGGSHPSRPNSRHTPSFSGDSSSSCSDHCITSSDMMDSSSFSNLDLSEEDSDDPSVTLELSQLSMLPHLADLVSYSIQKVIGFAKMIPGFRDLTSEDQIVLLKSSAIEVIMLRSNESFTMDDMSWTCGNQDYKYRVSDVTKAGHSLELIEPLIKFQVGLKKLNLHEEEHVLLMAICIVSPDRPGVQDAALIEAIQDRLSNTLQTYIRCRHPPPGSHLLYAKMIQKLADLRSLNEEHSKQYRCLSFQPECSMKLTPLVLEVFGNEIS
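Two reagent solutions held at 4 deg C in the dark were dispensed, compounds pinned at 23 nl, and the mixture incubated 2 h at room temperature. Read-out: fluorescence polarization of VDR–SRC2-3 peptide binding.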
* hit, by the source's call; u = inconclusive; & = joins results of further samples; [ ] = another dose, or the depositor's remark. % is set by controls: 0 for no effect and ±100 for the full control effect; potency is the fitted concentration of half-maximal effect. This is a subset. The share of hits here may be higher or lower than overall.

VDR inh | smiles
-14% | CC1(C(=O)N2CC3(CC(c4cccc(NC(=O)CC(c5ccccc5)c5ccccc5)c4)=NO3)C[C@@H]2C(N)=O)CC1 (some centres not stated)
-8% | CN(C)c1nc(NCc2ccccc2)nc(SCC(=O)Nc2ccccc2)n1
-7% | COc1ccccc1OCC(=O)Nc1ccccn1
u | CCC(C)CCCCCCCCCCC(=O)O (configuration not stated)
8% | Cc1ccc(OCC(O)CNCc2ccccc2)cc1C (configuration not stated)
12% | CC(C)C(NC(=O)C(Cc1ccc(O)cc1)NC(=O)C(NC(=O)C(F)(F)F)C(C)C)C(=O)O (configuration not stated)
u | CCN(CC)S(=O)(=O)c1ccc(O)c(NC(=O)c2ccc(N3CCOCC3)c([N+](=O)[O-])c2)c1
-6% | N/C(=N\OC(=O)Cc1ccccc1[N+](=O)[O-])c1ccccn1
-15% | CCOC(=O)/C(C#N)=C/c1cc2cc(C)c(C)cc2nc1Cl
-4% | O=C(COC(=O)c1ccc(Br)o1)Nc1ccc2[nH]c(=O)[nH]c2c1
7% | Cn1nnnc1SCCNCc1ccc(OCc2ccccc2Cl)cc1
u | Cc1ccc(S(=O)(=O)CCC(=O)c2ccc(F)cc2)cc1
3% | Cn1c(CC(=O)Nc2ccccc2)c(Sc2ccccc2)c2ccccc21
41%[activator] | O=C(CSc1nc(-c2ccccc2)c(-c2ccccc2)[nH]1)Nc1nccs1
4% | CC(C)C[C@H](NC(=O)C1(c2ccccc2)CCN(C(=O)OC(C)(C)C)CC1)C(=O)N1CCC[C@H]1C(=O)O
14%&7% | CC1CCN(S(=O)(=O)c2ccc3c(c2)N(CC(=O)NCCCN2CCCCC2)C(=O)CS3)CC1
11% | CCOc1ccc(C(=O)C2CCN(CC(=O)Nc3nccs3)CC2)cc1
-10% | Cc1cc(N2CCN(C(=O)OC(C)(C)C)CC2)n2ncnc2n1
15% | CCN(c1ccccc1)S(=O)(=O)c1c(C)nc2scc(C)n2c1=O
-3% | COc1ccc(CNc2nc(-c3ccccc3OC)nc3ccccc23)c(OC)c1
-12% | CCOC(=O)c1c(NC(=O)C2C3C=CC(CC3)C2C(=O)O)sc(C)c1C (configuration not stated)
u | CC(C)C12NC(=O)NC(=O)N1CCS2 (configuration not stated)
-3% | CCC(=O)c1ccc(OCC(=O)Nc2ccc(N3CCCCC3)cc2)cc1
-2% | CCOC(=O)CC1NC(=O)c2ccccc21 (configuration not stated)
-8% | CC(=O)N1CN(CCCn2ccnc2)Cc2c1sc1c2CCCC1
-14% | O=C(NCc1cccs1)c1cc(C2CC2)on1
-2% | COc1ccc(CNC(=O)c2cncc(Br)c2)cc1
15% | CC(NC(=O)NC1CCCCC1)c1ccc2c(c1)OCO2 (configuration not stated)
2% | O=S(O)OC1CS(=O)(=O)CC1c1ccccc1 (configuration not stated)
17% | Cc1ccc(S(=O)(=O)NC(=O)Nc2ccc(F)c(F)c2)cc1
-4% | CC(C)[C@H](NC(=O)c1ccc(Cl)cc1Cl)C(=O)NNC(=O)c1ccco1
-26% | Cc1cc(NC(=O)CN2C(=O)NC3(CCCCCC3)C2=O)ccc1Br
-16% | Cc1cccc(/C=C2\CCC(=C3SCCCS3)C2=O)c1
-4% | CCCCn1c(N)c(N(CCC(C)C)C(=O)c2cccc(S(=O)(=O)N3CCN(C)CC3)c2)c(=O)[nH]c1=O
-9% | COc1ccc(N(CC(=O)Nc2ccc(OC)cc2OC)S(=O)(=O)c2ccccc2)cc1
3% | CC(=O)OCC1(C)CN(c2ccccc2)N(C(=O)c2ccc(C(C)(C)C)cc2)C1=O (configuration not stated)
-19% | COc1cc2cc(C(=O)Nc3ccc4c(c3)OCCO4)[nH]c2cc1OC
0% | COc1ccc(F)cc1S(=O)(=O)NCc1cc(=O)n(C)c(=O)n1C
10% | CC(=O)NC(C)c1nc2ccccc2n1Cc1ccccc1Cl (configuration not stated)
0% | Cc1ccc(C(=O)NNC(=O)CSc2nnc(-c3ccncc3)n2C)cc1
-15% | O=C(Nc1ccc(-c2cn3c(n2)SCC3)cc1)c1ccc2ccccc2n1
13% | CCc1ccc(NS(=O)(=O)c2ccc(NC(=O)N3CCCC3)cc2)cc1
-4% | CCCCNC(=S)NNC(=O)CCn1nc(C)c(Br)c1C
6% | O=C1NC(=O)c2c(NC(=O)C3CCCO3)cccc21 (configuration not stated)
8% | Cc1cc(C)c2nc(-c3ccccn3)cc(C(=O)Nc3cc(C)on3)c2c1
-13% | CCOc1ccc(C(=O)Oc2c(Sc3ccccc3)c(C)nn2C(C)(C)C)cc1OCC
-10% | CC/C(C)=N/Oc1nc(C)cc(C)n1
-20% | CC(C)=CCC/C(C)=C/CNC(=O)C[C@H]1C[C@H](C(=O)N2CCCCC2)[C@@]2(C)c3[nH]c4cc(CCC(=O)N(C)C)ccc4c3CCN2C1=O
13% | CC(=O)Nc1ccc(S(=O)(=O)NCCc2ccccc2)cc1
12% | O=C(Nc1ccc(Cl)cn1)C1CCCN1S(=O)(=O)c1ccc(Cl)cc1 (configuration not stated)
15% | O=[N+]([O-])c1ccc2c(c1)C(=Nc1ccccc1)c1ccccc1-2
-6% | O=C(Nc1ccc2oc(-c3ccc4ccccc4c3)nc2c1)c1cc(Cl)ccc1Cl
8% | Oc1cccc(NC(=S)N=Nc2c(O)[nH]c3ccccc23)c1
-3% | CCCOc1ccc(Cc2c(Cl)nc(SC)nc2OC)cc1
11% | CC/C(=N\NC(=O)c1c[nH]c2ccccc12)c1cccs1
3% | COc1c(Cl)cc(C(=O)Nc2ccc(Cl)cn2)cc1Cl
-15% | CC1CCc2nc3ccccc3c(C(=O)OCC(=O)N3CCc4ccccc43)c2C1 (configuration not stated)
5% | CCOc1ccc(CCNC(=O)c2ccc(-c3nc(COc4ccc(C)cc4)c(C)o3)cc2)cc1
15% | COc1ccccc1-n1ccnc(SCC(=O)NC2CCCCC2)c1=O
u | O=C(CNc1cccc(S(=O)(=O)N2CCCCC2)c1)Nc1cccc(F)c1

The list continues:
VDR inh | smiles
u | Cc1c(C(=O)Oc2ccc(Cl)cc2)n(C)oc1=O
6% | Nc1nc2c(c3c1c(=O)oc1ccccc13)CCCCC2
-5%&-28% | O=C(Nc1cccnc1Cl)c1cc(-c2ccc(Cl)cc2)on1
3% | CCn1c(Cc2ccccc2)nnc1SCC(=O)Nc1nccs1
6% | COC(=O)/C(=N/Nc1ccccc1C)Sc1nnc(C(O)c2ccccc2)n1-c1ccccc1 (configuration not stated)
-28% | C#CCNC(=O)C1=C[C@@H](c2ccccc2)C[C@@H](OCCCCO)O1
-5% | CN(C)c1cccc(NC(=O)Cc2ccc(F)cc2)c1
u | Fc1ccc(NC(=S)N2CCSC2c2cccs2)cc1 (configuration not stated)
0% | Cc1ccc(-n2ncc(-c3nnc(SCC(=O)NC4CCCC4)o3)c2N)cc1C
-19% | CCOc1ccc(N2C(=O)CSC2=NC#N)cc1
2% | COc1ccccc1N1CCN(C(=O)CCCNC(=O)Cn2cnc3sc(C)c(C)c3c2=O)CC1
3% | O=C(COc1ccc(-c2ccccc2)cc1)NNC(=O)NC1CCCCC1
-28% | CCOC(=O)/C(C)=N/NC(=O)c1ccc([N+](=O)[O-])cc1
-17% | O=S(=O)(c1ccccc1)n1nc(-c2ccc(Cl)cc2)nc1NCc1ccc(F)cc1
-1% | O=C(CN1CCN(c2ccc(F)cc2)CC1)Nc1cccnc1Cl
-12% | COc1cccc(OC)c1C(=O)Nc1ccc2c(c1)n(C)c(=O)n2C
-6% | COc1cccc(CN2CC(C(=O)NCc3ncc(C)[nH]3)CCC2=O)c1 (configuration not stated)
16% | Cc1noc2ncnc(N3CCN(c4ccccc4F)CC3)c12
0% | Cc1ccc(OCCCSc2ncccn2)cc1C
-7% | Cc1nn(CC(=O)NCc2ccccn2)c(C)c1[N+](=O)[O-]
-1% | Cc1cc(C(=O)COC(=O)c2cnccn2)c(C)n1-c1ccc(Br)cc1
5% | CC(C)[C@H](NC(=O)[C@@H]1CSC2c3ccccc3C(=O)N21)C(=O)NCc1ccncc1 (some centres not stated)
0% | Cc1cc(OC2CCCCC2)nc(-c2ccccc2O)n1
-6% | O=C(C1CCCN(S(=O)(=O)c2ccc(Br)cc2)C1)N1CCN(Cc2ccccc2)CC1 (configuration not stated)
8% | O=C(CCN1CCN(CC(=O)Nc2ccccc2F)CC1)Nc1ccccc1F
-2% | COc1ccc(C(c2nnnn2Cc2cccs2)N2CCN(c3ccccc3F)CC2)cc1 (configuration not stated)
-16% | Cc1nc2c(C(=O)NCc3ccccc3Cl)c[nH]n2c(=O)c1Cl
10% | CC(=O)Nc1c(S(=O)(=O)c2ccccc2)c2nc3ccccc3nc2n1Cc1ccccc1
-17%&-1% | CCN(CC)CCNC(=O)c1cn(CC)c2ccc(S(=O)(=O)N3CCc4ccccc4C3)cc2c1=O
1% | N#Cc1c(NC(=O)CS(=O)(=O)c2ccc(Cl)cc2)sc2c1CCCCC2
2% | Cc1ccc(CN(C(=O)COc2ccc(Cl)cc2Cl)C2CCS(=O)(=O)C2)o1 (configuration not stated)
-19% | CN(C)CCCNC(=O)c1ccc(Oc2ccccc2)cc1
-7% | COc1ccccc1NC(=S)N(Cc1ccc(C(=O)O)cc1)Cc1ccc(OC)c(OC)c1
-16% | CC1=C(C#N)C(NC(=O)c2ccc(Cl)cc2)(C(F)(F)F)C(=O)N1 (configuration not stated)
-2% | Nc1cccc(S(=O)(=O)c2ccc(N)c(N)c2)c1
-12% | CC(C)N(C)Cc1nnnn1CC(=O)NCc1cc(F)cc(C(F)(F)F)c1
-4% | C=C(C)c1cccc(C(C)(C)NC(=O)Nc2nnc(C(C)C)s2)c1
9% | CC(C)c1ccccc1NC(=O)CN(c1ccccc1)S(=O)(=O)N(C)C
-11% | CSc1nnc(C(C)(C)C)c(=O)n1/N=C/c1ccc(C(C)C)cc1
-14% | Cc1ncsc1C(=O)N1CCCC(C(=O)c2ccc3ccccc3c2)C1 (configuration not stated)
10% | CCC(=O)c1ccc(N2CCOCC2)c(F)c1
-10%&23% | Cc1ccc(CNc2nc3ccccc3n3cnnc23)cc1
-9% | Cc1ccc(NC(=O)COC(=O)c2ccc(S(=O)(=O)NCc3ccco3)cc2)cc1
u | Cc1cc(C)n2nc(C(=O)NCc3ccccc3)cc2n1
-6% | CCOc1ccc(/C=C2/SC(=S)N(n3c(C)ccc3C)C2=O)cc1
7% | O=C(COc1ccc([N+](=O)[O-])cc1)Nc1ccc(C(=O)NCc2cccnc2)cc1
0% | CC(C)c1ccc2occ(-c3nn[nH]n3)c(=O)c2c1
u | CCOc1cccc(/C=C(/C#N)c2nc3ccccc3[nH]2)c1OCC(=O)O

A run of entries of the results above, for reference:
VDR inh | smiles
-3% | CCC(=O)c1ccc(OCC(=O)Nc2ccc(N3CCCCC3)cc2)cc1
-2% | CCOC(=O)CC1NC(=O)c2ccccc21 (configuration not stated)
-8% | CC(=O)N1CN(CCCn2ccnc2)Cc2c1sc1c2CCCC1
-14% | O=C(NCc1cccs1)c1cc(C2CC2)on1
-2% | COc1ccc(CNC(=O)c2cncc(Br)c2)cc1
15% | CC(NC(=O)NC1CCCCC1)c1ccc2c(c1)OCO2 (configuration not stated)
2% | O=S(O)OC1CS(=O)(=O)CC1c1ccccc1 (configuration not stated)
17% | Cc1ccc(S(=O)(=O)NC(=O)Nc2ccc(F)c(F)c2)cc1
-4% | CC(C)[C@H](NC(=O)c1ccc(Cl)cc1Cl)C(=O)NNC(=O)c1ccco1
-26% | Cc1cc(NC(=O)CN2C(=O)NC3(CCCCCC3)C2=O)ccc1Br
-16% | Cc1cccc(/C=C2\CCC(=C3SCCCS3)C2=O)c1
-4% | CCCCn1c(N)c(N(CCC(C)C)C(=O)c2cccc(S(=O)(=O)N3CCN(C)CC3)c2)c(=O)[nH]c1=O
-9% | COc1ccc(N(CC(=O)Nc2ccc(OC)cc2OC)S(=O)(=O)c2ccccc2)cc1
3% | CC(=O)OCC1(C)CN(c2ccccc2)N(C(=O)c2ccc(C(C)(C)C)cc2)C1=O (configuration not stated)
-19% | COc1cc2cc(C(=O)Nc3ccc4c(c3)OCCO4)[nH]c2cc1OC
0% | COc1ccc(F)cc1S(=O)(=O)NCc1cc(=O)n(C)c(=O)n1C
10% | CC(=O)NC(C)c1nc2ccccc2n1Cc1ccccc1Cl (configuration not stated)

Other entries follow.
VDR inh | smiles
1% | Cc1ccc(C(NC(=O)c2cccc(S(=O)(=O)N3CCN(C)CC3)c2)c2ccccc2)cc1 (configuration not stated)
-7% | N/C(Cc1cccc2ccccc12)=N\OC(=O)c1ccccc1F
5% | C1=CC2CC1CC2CN1CCN(Cc2ccccc2)CC1 (configuration not stated)
-13% | Cn1c(SCc2n[nH]c(=S)o2)nnc1-c1ccccc1
11% | Cc1cn(C)c(CC(=O)Nc2cccc(Cl)c2C)c1C(=O)O
-11% | Cc1ccccc1CN(CC1CCC(C(=O)O)CC1)C(=S)Nc1ccccc1F (configuration not stated)
u | Cc1cc(C)c(S(=O)(=O)/N=C2\C=C(Nc3ccc(C(=O)O)cc3)C(=O)c3ccccc32)c(C)c1
-3% | CCCNC(=O)c1ccc2c(c1)N=C(CCC)c1ccccc1S2
0% | COC(=O)CC1C(=O)NCCN1C(=O)Nc1cccc(Cl)c1 (configuration not stated)
10% | CCOC(=O)c1cccnc1SCC(=O)NCc1ccccc1
-6% | COCc1[nH]nc2c1C(c1c(F)cccc1Cl)C(C#N)=C(N)O2 (configuration not stated)
-12% | CCCN1CNc2c(c(=O)[nH]c(=S)n2CCc2cccs2)C1
1% | CN1CCN(c2ncc3nc(-c4cc(F)cc(F)c4)c(=O)n(CCc4ccccc4)c3n2)CC1
10% | CCOC(=O)CCSc1nc(C)c2cc(C)ccc2n1
